Bioassay records: PubChem BioAssay, several laboratories
Bead autofluor: flagged as autofluorescent in microsphere protease counterscreen; compound autofluorescence counterscreen, microsphere flow cytometry; active compounds read high; fluorescence intensity (concentration not given with the values); 360,000 compounds, 3.1% hits; AID 624483;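 active = at least 3 SD above the mean of all compounds, about 16000 in these data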;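 also: 100 nL of 1 mM stock went into each well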
PrP 5UTR inh: inhibition of PrP 5' UTR reporter expression; cell-based PrP 5' UTR mRNA reporter, plate reader; AID 488862; 340,000 compounds, 0.35% hits; inhibition, % (no concentration beside the values);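 active = every replicate at 50% or more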;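 also: 0 = median of the neutral control wells; tested in H4 reporter cells; numbers are from one replicate; inactives centre near -14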
Sa ugtP lethal: kills S. aureus RN4220 lacking UgtP. S. aureus RN4220 ugtP deletion, OD600 growth, 16 h; some inactives read as strong as hits. growth inhibition, % (no concentration beside the values). 330,000 compounds, 0.54% hits. AID 1259309;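 active = z-score under -3 and OD600 up to 0.15 on both plates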;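 also: plate controls were untreated wells for no effect and antibiotic for full effect; wells of about 80 µL received 100 nL stock; the first replicate is given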
BJeLR viability: BJeLR cell viability loss; 300,000 compounds, 0.17% hits; inhibition, % (test concentration not listed); BJeLR (HRASV12) viability, CellTiter-Glo ATP luminescence, 48 h; reference of the scale not given here;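 active = replicate mean above 50%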;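 also: 50 nL library stock added to about 25 µL; numbers are from one replicate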
RN4220 kill: kills Staphylococcus aureus RN4220; S. aureus RN4220 growth, OD600, 16 h; inhibition, % (test concentration not listed); 330,000 compounds, 0.33% hits; AID 1259311;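 active = z-score of -3 or lower and OD600 up to 0.18 on both plates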;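 also: plate controls were untreated cells for no effect and reference antibiotic for full effect; stock transfer was 100 nL into about 80 µL; one replicate is shown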
Mtb hypoxia rep: inhibitors of hypoxia-regulated fluorescent reporter in Mycobacterium tuberculosis; M. tuberculosis hypoxia-regulated fluorescent reporter, fluorescence; fluorescence inhibition, % (test concentration not listed); 300,000 compounds, 0.1% hits; AID 1159583;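 active = 35 to 45% if threefold the growth effect, above 45% if 1.5-fold the growth effect; inactive = the rest, general growth blockers included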;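 also: wells of about 50 µL received 100 nL stock; 0% = vehicle wells and 100% = reference inhibitor wells; whole bacteria with a GFP reporter of the hypoxia response; strong numbers were not always called active; many hits fall short of the cut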
Mtb hypoxia rep growth: recorded beside Mtb hypoxia rep, whose call it bears; growth inhibition, %; measured here: M. tuberculosis growth (absorbance);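 0% = vehicle and 100% = reference antibiotic; read after six days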
The depositor's hits bear a star.

CCOC(=O)C1CCCCN1Cc1cn[nH]c1-c1ccc(F)cc1F (configuration not stated) was read as Bead autofluor 5327, PrP 5UTR inh -24, Sa ugtP lethal -6, BJeLR viability -6, RN4220 kill 7.4, Mtb hypoxia rep -2 and Mtb hypoxia rep growth -4.
Screening COC(=O)C1=C(C)N(Cc2ccccc2)C(=NCCc2ccccn2)NC1c1cccc(C(F)(F)F)c1 (configuration not stated) returned Sa ugtP lethal 0, RN4220 kill -1.2, Mtb hypoxia rep 4 and Mtb hypoxia rep growth 16.
O=C1C2C3C=CC(C3)C2C(=O)N1c1nccs1 (configuration not stated) was read as Bead autofluor 5728, PrP 5UTR inh -11, Sa ugtP lethal 0, BJeLR viability 9, RN4220 kill 2.0, Mtb hypoxia rep -10 and Mtb hypoxia rep growth 8.
Cc1ccc(NC(=O)CSc2nnc(Cc3cccn3C)n2-c2ccc(F)cc2)cc1 was read as Bead autofluor 5945, PrP 5UTR inh -2, Sa ugtP lethal 5, BJeLR viability 8 and RN4220 kill 6.0.
`CCOC(=O)/C(C#N)=C\c1ccco1` gave Bead autofluor 10346, PrP 5UTR inh -8, Sa ugtP lethal 0, BJeLR viability 3, RN4220 kill 0.8, Mtb hypoxia rep 3 and Mtb hypoxia rep growth 12.
`CCCCn1c(N)c(N(CCC(C)C)C(=O)C2CCCO2)c(=O)[nH]c1=O` (configuration not stated) gave Bead autofluor 6481, PrP 5UTR inh -17, Sa ugtP lethal 3, BJeLR viability -5, RN4220 kill 0.0, Mtb hypoxia rep -2 and Mtb hypoxia rep growth 0.
Screening Cc1ccc2c(c1C)NC(=O)C21N2CCCC2C(C(=O)c2ccc3ccccc3c2)C12C(=O)Nc1ccccc12 (configuration not stated) returned Bead autofluor 4305, PrP 5UTR inh -9, Sa ugtP lethal -8, RN4220 kill 1.2, Mtb hypoxia rep -14 and Mtb hypoxia rep growth 7.
`O[C@@H]1COC(Nc2ccc(N=Nc3ccccc3)cc2)C[C@@H]1O` (some centres not stated) gave Sa ugtP lethal -3, BJeLR viability 3, RN4220 kill 5.7, Mtb hypoxia rep 3 and Mtb hypoxia rep growth -2.
CC[C@H]1CN(C)CCc2c([nH]c3ccccc23)C(=O)C[C@@H]1/C(=C\OC)C(=O)OC was read as Bead autofluor 5857, PrP 5UTR inh -14, Sa ugtP lethal -10, BJeLR viability 1 and RN4220 kill 0.5.
Screening O=[N+]([O-])c1cc(C(F)(F)F)cc([N+](=O)[O-])c1Sc1n[nH]c(C(F)(F)F)n1 returned PrP 5UTR inh -22, Sa ugtP lethal 9, BJeLR viability -22, RN4220 kill 2.6, Mtb hypoxia rep -9 and Mtb hypoxia rep growth 6.
`CCOC(=O)c1cnc(-n2nc(C)cc2C)nc1NNc1ncc(-c2ccccc2)cn1` gave Sa ugtP lethal 11, BJeLR viability 10, RN4220 kill 9.9, Mtb hypoxia rep 8 and Mtb hypoxia rep growth -4.
Cc1cc(=O)[nH]c(SCC(=O)NC2CCCc3ccccc32)n1 (configuration not stated) was read as Bead autofluor 4924, PrP 5UTR inh 3, Sa ugtP lethal 13, BJeLR viability 0, RN4220 kill 4.1, Mtb hypoxia rep -9 and Mtb hypoxia rep growth 1.
Cc1ccc(NC(=O)C(=O)NCc2ccccn2)cc1 was read as Bead autofluor 2219, PrP 5UTR inh -43, Sa ugtP lethal 7, BJeLR viability 9, RN4220 kill 1.8, Mtb hypoxia rep 1 and Mtb hypoxia rep growth 8.
COc1ccc(Cl)cc1NC(=O)CSc1nc(NS(=O)(=O)c2ccccc2)cc(=O)[nH]1 was read as Bead autofluor 3739, PrP 5UTR inh -4, Sa ugtP lethal 5, BJeLR viability -12, RN4220 kill 1.4, Mtb hypoxia rep -1 and Mtb hypoxia rep growth 3.
For O=C(COC(=O)c1cc(Cl)ccc1Cl)NCCN1C(=O)CSC1=O the results were Bead autofluor 2512, PrP 5UTR inh 3, Sa ugtP lethal 2, BJeLR viability 2, RN4220 kill 4.4, Mtb hypoxia rep -3 and Mtb hypoxia rep growth -3.
For COc1ccc(C(=O)/C=C/C(=O)N(Cc2ccc3c(c2)OCO3)C(C(=O)NC2CCCCC2)c2ccncc2)c(O)c1 (configuration not stated) the results were Bead autofluor 7114, PrP 5UTR inh -26, Sa ugtP lethal -10, BJeLR viability 2, RN4220 kill -5.0, Mtb hypoxia rep -3 and Mtb hypoxia rep growth 1.
`CCN=c1scc(C)n1/N=C/c1cc(Br)c(O)c(OC)c1` gave Bead autofluor 4803, PrP 5UTR inh -33 and BJeLR viability -2.
CC(C)CC1NC(=O)N(CC(=O)c2ccc3c(c2)OCCO3)C1=O (configuration not stated) was read as Bead autofluor 3607, PrP 5UTR inh -44, Sa ugtP lethal 3, BJeLR viability 3, RN4220 kill 5.3, Mtb hypoxia rep 7 and Mtb hypoxia rep growth 7.
CC1CCc2nc(NC(=O)c3ccc(S(=O)(=O)N4CCCc5ccccc54)cc3)sc2C1 (configuration not stated) was read as Bead autofluor 9948, PrP 5UTR inh -63, Sa ugtP lethal -2, BJeLR viability 6, RN4220 kill -2.1, Mtb hypoxia rep -4 and Mtb hypoxia rep growth -7.
For CC(Oc1cc2oc(=O)c3c(c2cc1Cl)CCCC3)C(=O)NCc1ccccn1 (configuration not stated) the results were Bead autofluor 6498, PrP 5UTR inh -19, Sa ugtP lethal 17, BJeLR viability 3, RN4220 kill 19, Mtb hypoxia rep 4 and Mtb hypoxia rep growth 5.
`O=C1C=C(c2ccc(F)nc2)CC(c2ccc3c(c2)OCO3)C1` (configuration not stated) gave Sa ugtP lethal -8, RN4220 kill 2.9, Mtb hypoxia rep 6 and Mtb hypoxia rep growth 9.
`Cc1cccc(NC(=O)CCc2c(C)nc3ncnn3c2C)n1` gave Bead autofluor 4262, PrP 5UTR inh -14, Sa ugtP lethal 5, BJeLR viability -9, RN4220 kill 6.3, Mtb hypoxia rep 0 and Mtb hypoxia rep growth -1.
`CCc1nc2sc3c(c2c(=O)n1N)CC(C)(C)OC3` gave Bead autofluor 2814, PrP 5UTR inh -19, Sa ugtP lethal 6, BJeLR viability 4, RN4220 kill 0.8, Mtb hypoxia rep 4 and Mtb hypoxia rep growth 4.
Screening CC(C)Cn1c(-c2ccccc2F)n[nH]c1=S returned Bead autofluor 2135, PrP 5UTR inh 11, Sa ugtP lethal 1, BJeLR viability -5 and RN4220 kill 0.7.
O=S1(=O)CCN(Cc2csc(-c3cccs3)n2)CC1 was read as Bead autofluor 5639, PrP 5UTR inh -44, Sa ugtP lethal 5, BJeLR viability 3, RN4220 kill 5.2, Mtb hypoxia rep -6 and Mtb hypoxia rep growth -2.
For O=c1c([N+](=O)[O-])c(N2CCCCCC2)c2ccccc2n1-c1ccccc1 the results were Bead autofluor 2930, PrP 5UTR inh 12, Sa ugtP lethal 6, BJeLR viability 2, RN4220 kill 3.8, Mtb hypoxia rep 5 and Mtb hypoxia rep growth 2.
`CCn1c(C)c(C)c2cc(C(=O)NCCN3CCOCC3)ccc21` gave Bead autofluor 4964, PrP 5UTR inh -9, Sa ugtP lethal 0, BJeLR viability 10, RN4220 kill 0.5, Mtb hypoxia rep 5 and Mtb hypoxia rep growth -6.
`O=C(c1cc(C2CC2)nn1-c1ccccc1)N1CCN(Cc2ccc(Cl)cc2)CC1` gave Bead autofluor 3011, PrP 5UTR inh -13, Sa ugtP lethal 15, RN4220 kill 6.8, Mtb hypoxia rep 1 and Mtb hypoxia rep growth 2.
For O=C(CN1CCN(c2ccc(F)cc2)CC1)N1N=CCC1c1ccccc1 (configuration not stated) the results were Bead autofluor 11161, PrP 5UTR inh -32, Sa ugtP lethal -5, BJeLR viability 2, RN4220 kill -0.1, Mtb hypoxia rep 2 and Mtb hypoxia rep growth 9.
CN(C(=O)COC(=O)C1CCN(S(=O)(=O)c2cccs2)CC1)c1ccccc1 was read as Bead autofluor 3713, PrP 5UTR inh -8, Sa ugtP lethal 7, BJeLR viability 2, RN4220 kill 4.8, Mtb hypoxia rep 3 and Mtb hypoxia rep growth 10.
For O=C1CC(c2cccc(F)c2)c2c(c3ccccc3[nH]c2=O)O1 (configuration not stated) the results were Bead autofluor 4282, PrP 5UTR inh -25, Sa ugtP lethal 10, BJeLR viability 0, RN4220 kill 6.5, Mtb hypoxia rep -2 and Mtb hypoxia rep growth -4.
COc1cccc(CNS(=O)(=O)c2c(C)nc3scc(C)n3c2=O)c1 was read as Bead autofluor 5453, PrP 5UTR inh -7, Sa ugtP lethal 5, BJeLR viability 8, RN4220 kill 4.3, Mtb hypoxia rep 6 and Mtb hypoxia rep growth 6.
Screening OC(CNCc1ccccc1Cl)C(F)(F)F (configuration not stated) returned Bead autofluor 4571, PrP 5UTR inh -16, Sa ugtP lethal 6, BJeLR viability -6, RN4220 kill 0.9, Mtb hypoxia rep 13 and Mtb hypoxia rep growth 6.
For CCc1ccc(NC(=O)C(C)OC(=O)C2CCN(c3ccc(C(F)(F)F)cn3)CC2)cc1 (configuration not stated) the results were Bead autofluor 5003, PrP 5UTR inh -17, Sa ugtP lethal -3, BJeLR viability -10, RN4220 kill 2.6, Mtb hypoxia rep 0 and Mtb hypoxia rep growth 9.
CN(C)C(=O)c1ccccc1Sc1cc(Cl)ccc1Cl was read as Bead autofluor 2851, PrP 5UTR inh -4, Sa ugtP lethal -1, BJeLR viability 4 and RN4220 kill 4.0.
`O=C(CCNC(=O)N1CCn2c1nc1ccccc12)NCc1ccc(F)cc1` gave Bead autofluor 6034, PrP 5UTR inh -27, Sa ugtP lethal 6, BJeLR viability 2, RN4220 kill 0.9, Mtb hypoxia rep 1 and Mtb hypoxia rep growth 0.
CN(Cc1cnn(C)c1)Cc1nc(C(c2ccccc2)c2ccccc2)no1 was read as Bead autofluor 2612, PrP 5UTR inh 4, Sa ugtP lethal -4, BJeLR viability 3, RN4220 kill -0.8, Mtb hypoxia rep 1 and Mtb hypoxia rep growth -13.
For CC(CC(=O)Nc1ccc(C)c(Cl)c1)=NNC(=O)Cc1cnc(N)s1 the results were Sa ugtP lethal 10, RN4220 kill 5.5, Mtb hypoxia rep 7 and Mtb hypoxia rep growth 8.
`O=C(CCCc1c[nH]c2ccccc12)Nc1ncccc1O` gave Bead autofluor 5993, PrP 5UTR inh -10, Sa ugtP lethal 5, BJeLR viability 3, RN4220 kill 2.8, Mtb hypoxia rep 4 and Mtb hypoxia rep growth -6.
For FC(F)(F)c1cnc(NNC(=S)Nc2ccc(Cl)cc2)c(Cl)c1 the results were Bead autofluor 2410, PrP 5UTR inh -2, Sa ugtP lethal 70, BJeLR viability 20, RN4220 kill 92*, Mtb hypoxia rep -6 and Mtb hypoxia rep growth 1.
COc1ccc(N2CCN(C(CNS(=O)(=O)c3ccccc3)c3ccccc3)CC2)cc1 (configuration not stated) was read as Bead autofluor 5509, PrP 5UTR inh -13, Sa ugtP lethal 6, BJeLR viability -5, RN4220 kill 5.2, Mtb hypoxia rep 4 and Mtb hypoxia rep growth 4.
Screening O=S(=O)(N/N=C/c1ccc2c(c1)OCCO2)c1ccccc1 returned Bead autofluor 22257*, PrP 5UTR inh -28 and BJeLR viability 0.
CCOC(Cn1c(CCCO)nc2ccccc21)OCC was read as Bead autofluor 4259, PrP 5UTR inh -10, Sa ugtP lethal 8, BJeLR viability -1, RN4220 kill 4.3, Mtb hypoxia rep 8 and Mtb hypoxia rep growth 3.
Screening O=C(CN1CCS(=O)(=O)CC1)NN=Cc1cccc(C(F)(F)F)c1 returned Sa ugtP lethal 6, RN4220 kill 2.7, Mtb hypoxia rep 3 and Mtb hypoxia rep growth -5.
CCc1ccc(NC(=O)Nc2ccc3c(c2)N(C)C(=O)CS3)cc1 was read as Bead autofluor 5556, PrP 5UTR inh -16, Sa ugtP lethal 9, BJeLR viability 5 and RN4220 kill -0.7.
`CC(=O)Nc1ccc(NS(=O)(=O)c2ccc(-c3csc(C)n3)s2)cc1` gave Bead autofluor 4528, Sa ugtP lethal 13, BJeLR viability -20, RN4220 kill 5.4, Mtb hypoxia rep 13 and Mtb hypoxia rep growth 8.

Pulled by structure from the entries so far, two records:
CCOC(=O)C1CCCCN1Cc1cn[nH]c1-c1ccc(F)cc1F (configuration not stated) was read as Bead autofluor 5327, PrP 5UTR inh -24, Sa ugtP lethal -6, BJeLR viability -6, RN4220 kill 7.4, Mtb hypoxia rep -2 and Mtb hypoxia rep growth -4.
O=C1C2C3C=CC(C3)C2C(=O)N1c1nccs1 (configuration not stated) was read as Bead autofluor 5728, PrP 5UTR inh -11, Sa ugtP lethal 0, BJeLR viability 9, RN4220 kill 2.0, Mtb hypoxia rep -10 and Mtb hypoxia rep growth 8.

Compounds as they come. Share with any hit: about 4%.
